# FGF22 binding = shifts melting point of recombinant human FGF22; 340,000 tested, 1.5% active; calls only at 9.99 µM; AID 651658; recombinant FGF22 thermal shift, SYPRO orange fluorescence; percent of sucrose octasulfate shift, DMSO zero;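 active = melting point raised past a set limit in the mean and every replicate; inconclusive = no clear call; three in four hits are not shown here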
# Target sequence (Q9HCT0 whole entry, looked up): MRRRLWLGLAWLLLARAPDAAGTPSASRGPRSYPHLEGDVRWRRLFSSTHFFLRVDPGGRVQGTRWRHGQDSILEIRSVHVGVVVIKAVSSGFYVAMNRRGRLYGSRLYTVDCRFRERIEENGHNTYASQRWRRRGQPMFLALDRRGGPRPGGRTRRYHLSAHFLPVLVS
# RanGTP-Impb inh = inhibitors of RanGTP-importin-beta interaction, primary screen, biochemical, FRET, CFP-Ran, YFP-importin-beta, homogeneous. cell-free CFP-Ran/YFP-importin-beta FRET ratio. inhibition, % (no concentration beside the values). 300,000 tested, 1.1% active;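 active = most replicates above 15%; inconclusive = exactly half above 15%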;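 note: 0% = DMSO wells and 100% = Ran loaded with GDP instead of GTP; wells of about 40 µL received 100 nL stock; the first replicate is given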
# Ecoli growth = E. coli growth inhibition. AID 1053175. OD600 absorbance (concentration not given with the values). Escherichia coli growth, OD600, 23 h; hits give low values. 330,000 tested, 0.21% active;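 active = OD600 absorbance below the run mean of sample wells minus 3.6 SD, in any replicate, cut at about 0.56 in these data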;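 note: stock transfer was 300 nL into about 60 µL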
# UCH37 inh = blocks the human deubiquitinase UCH37 | AID 588478 | 330,000 tested, 0.33% active | inhibition, % (test concentration not listed) | Q9Y5K5 | purified proteasome/UCH37, Ub-AMC cleavage fluorescence;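 active = mean of two replicates above 20%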;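 note: 0% = compound-free wells with enzyme and 100% = wells lacking proteasome; stock transfer was 100 nL into about 20 µL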
# Target sequence (Q9Y5K5 whole entry, looked up): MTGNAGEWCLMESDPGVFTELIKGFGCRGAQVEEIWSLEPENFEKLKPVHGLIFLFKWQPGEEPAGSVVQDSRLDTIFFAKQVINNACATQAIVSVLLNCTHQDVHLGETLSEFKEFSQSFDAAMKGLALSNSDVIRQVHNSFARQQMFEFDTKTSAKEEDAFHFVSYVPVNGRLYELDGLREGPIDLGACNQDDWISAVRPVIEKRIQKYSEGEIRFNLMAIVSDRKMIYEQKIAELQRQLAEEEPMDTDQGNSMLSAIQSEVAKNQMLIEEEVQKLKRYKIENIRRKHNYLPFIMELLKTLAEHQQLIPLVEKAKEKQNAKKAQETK
#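 Material: Human UCH37 enzyme supplied as purified proteasome complex | Schedule: 30 min compound-proteasome preincubation then 25 min substrate reaction, room temperature | Detection: AMC fluorescence from Ub-AMC cleavage, excitation 355 nm, emission 460 nm | Benchmarks: Wells without proteasome as full block, compound-free enzyme plus substrate as uninhibited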
# HNF4A DNA FP = change in binding of human HNF4 alpha to DNA; P41235; HNF4a-FITC DNA binding, fluorescence polarization, 1 h; activity change, % at 10 µM; 360,000 tested, 0.3% active; AID 1224865; in the data active = activity change above about 30%, passing the limit was not always enough;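 note: controls were the assay level and a saturating level of protein; the project sought stronger binding though the title names inhibitors; some compounds called inactive have numbers as strong as hits; positive values seem to mean higher polarization but the record does not say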
# Vif TR-FRET = HIV-1 Vif–A3G interaction blockers – biochemical, TR-FRET, GST-Vif 1-94, biotin-A3G peptide, dose response retest, primary screen (AID 1117319). TR-FRET GST-Vif / biotin-A3G peptide binding; higher % means a stronger effect; test concentration not given here; strong numbers were not always called active. inhibition, %, or IC50 in µM where a hit was titrated. 260,000 tested, 0.57% active;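 active = above the screen mean plus three standard deviations and confirmed in dose response; inconclusive = results disagree or hit not tested in dose response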;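 note: Vif residues 1-94 fused to GST binding biotinylated APOBEC3G peptide 110-148; 0% = full assay without inhibitor and 100% = GST in place of GST-Vif; retest series ran down from 100 µM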
# MLL AF4-AF9 inh = blocks AF4 peptide binding to human AF9 | AID 651704 | 350,000 tested, 0.47% active | AlphaScreen, biotin-AF4 peptide binding to FLAG-AF9 | P42568 | inhibition, % at 10 µM;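 active = every replicate reaching a set inhibition limit, whatever the replicate mean, cut at about 25% in these data; inconclusive = mean inhibition reaches that limit but some replicates miss it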;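 note: 0% = plate neutral control median and 100% = total signal loss; the record names both 10 and 1 µM as test concentration; the first replicate is given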
# Target sequence (P42568 whole entry, looked up): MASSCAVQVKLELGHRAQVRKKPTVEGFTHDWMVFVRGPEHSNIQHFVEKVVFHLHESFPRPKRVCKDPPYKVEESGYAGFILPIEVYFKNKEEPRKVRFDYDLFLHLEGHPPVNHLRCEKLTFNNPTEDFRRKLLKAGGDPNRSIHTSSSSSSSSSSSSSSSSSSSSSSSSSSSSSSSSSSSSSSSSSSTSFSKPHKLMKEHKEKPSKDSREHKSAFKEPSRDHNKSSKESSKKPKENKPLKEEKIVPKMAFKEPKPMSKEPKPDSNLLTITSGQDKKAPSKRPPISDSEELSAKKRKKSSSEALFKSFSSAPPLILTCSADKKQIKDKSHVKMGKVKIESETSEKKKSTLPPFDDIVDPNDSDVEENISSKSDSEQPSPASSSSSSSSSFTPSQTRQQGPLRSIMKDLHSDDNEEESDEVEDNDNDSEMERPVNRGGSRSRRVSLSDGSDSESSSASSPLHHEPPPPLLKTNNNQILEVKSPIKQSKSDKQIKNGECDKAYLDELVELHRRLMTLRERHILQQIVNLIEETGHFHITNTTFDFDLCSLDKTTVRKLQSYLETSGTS
# Starred values were filed as active, the others as inactive; i = inactive; ? = inconclusive; · = not tested or not shown; & = joins results of further samples.
# The line under a structure holds: FGF22 binding	RanGTP-Impb inh	Ecoli growth	UCH37 inh	HNF4A DNA FP	Vif TR-FRET	MLL AF4-AF9 inh
O=C(Cc1ccc(Cl)cc1)NCCCNC(=O)c1cccnc1
    i	-3.9	0.65	1.7	0.6	-7%	1.7
Cc1ccccc1CNC(=O)C(=O)NCC1CCCN1S(=O)(=O)c1cccs1 (stereo not drawn)
    i	-1.1	0.7	-1.4	-2.9	-11%	-0.1
CC1CN(C(=O)Nc2ccc3c(c2)OCCO3)CC(C)O1 (stereo not drawn)
    i	0.5	0.69	2.6	3.7	8%	-0.2
N#CCc1ccc(NS(=O)(=O)c2cccs2)cc1
    ·	?	0.7	1.4	0.1	1%	·
O=C(CSc1cccc[n+]1[O-])Nc1ccc(C(F)(F)F)cc1[N+](=O)[O-]
    i	-0.7	0.69	2.4	-0.8	3%	2.2
CC(=O)Oc1ccc(/C=N\NC(=O)c2cc3c(ccc4ccccc43)o2)cc1
    i	0.0	·	·	13	·	-1.2
CCCCc1nnc(NC(=O)c2ccc3c(=O)n4c(nc3c2)CCC4)s1
    i	-2.8	0.61	-2.5	-5.8	-5%	-2.4
COC(=O)C1(C(=O)OC)C[C@H](c2ccc(OC)cc2)N(Cc2ccccc2OC)[C@@H]1c1ccccc1
    i	·	·	·	2.5	·	-2.6
CCCSc1nc2sc3c(c2c(=O)n1CC)CC(C)(C)OC3
    ·	0.5	0.69	5.5	-5.8	8%	-18
Cc1nnc(NC(=O)C2CCCN(S(=O)(=O)c3ccccc3C(F)(F)F)C2)s1 (stereo not drawn)
    ·	-3.6	0.71	-5.8	-0.1	-4%	·
O=C(c1ccco1)N1CCN(Cc2cc(=O)c(OCc3ccc([N+](=O)[O-])cc3)co2)CC1
    i	-1.7	0.63	-0.6	-1.4	-2%	12
Cc1ncc(C[n+]2csc(CCOC(=O)CC3C4CC5CC(C4)CC3C5)c2C)c(N)n1 (stereo not drawn)
    ·	0.9	0.71	0.8	1.1	17%	·
COc1cc(NC(=O)C2CCCCC2)c(OC)cc1NC(=O)c1ccccc1
    i	3.3	0.68	2.2	5.2	1%	2.7
CCc1ccc(N2CC(C(=O)N/N=C/c3cc([N+](=O)[O-])ccc3O)CC2=O)cc1 (stereo not drawn)
    i	5.3	·	·	-4.7	-5%	0.3
CSc1nnc(-c2sc3cc(C(F)(F)F)cnc3c2-c2ccccn2)n1C
    ·	0.4	0.72	-18	-2.9	-1%	·
O=S(=O)(c1ccc2oc3ccccc3c2c1)N1CCCC1
    ·	3.9	0.76	4.0	-0.1	-5%	·
Cc1nc2c(C#N)c(C)[nH]n2c(=O)c1Cc1ccccc1
    i	1.4	0.67	4.8	1.2	1%	-2.3
CC1(C)CC(=O)C(N=Nc2ccc(F)cc2)=C(O)C1
    i	-0.3	0.72	8.3	-0.1	-1%	0.8
C=CC[C@]12CCc3sccc3C1N(c1ccc(C(=O)OCC)cc1)C2=O (stereo partly drawn)
    i	·	0.65	0.8	3.5	·	-3.3
Cc1ccnn1CC(=O)N/N=C/c1cn[nH]c1-c1ccc(F)cc1
    i	2.1	·	·	0.7	1%	-1.8
O=C(CC1Sc2ccccc2NC1=O)Nc1ccccc1[N+](=O)[O-] (stereo not drawn)
    i	-3.5	0.65	2.9	1.3	·	-3.0
COc1ccc(/C=N/NC(=O)c2ccc(=O)[nH]n2)cc1OC
    i	1.3	·	·	-1.7	?	-70
CC1Cc2cc(-c3csc(NC(=O)Cc4cccs4)n3)ccc2N1S(C)(=O)=O (stereo not drawn)
    ·	·	0.64	-0.4	-0.7	27%&-4%	·
COc1ccc(S(=O)(=O)N2CCCCCC2)cc1C(=O)N(C)Cc1ccc(C)cc1
    i	-3.9	0.69	-1.3	1.1	1%	-0.7
COc1ccc(-n2ncc3c2CC(C)(C)CC3NC(=O)c2ccoc2C)cc1 (stereo not drawn)
    i	-1.2	0.71	3.9	-2.0	-2%	-0.1
Nn1c(SCC(=O)Nc2ccc(Oc3ccccc3)cc2)nnc1C1CC1
    ·	2.4	0.61	2.2	1.1	14%	·
O=C1CNC(=O)N1
    i	6.0	0.7	4.8	1.1	·	1.5
Clc1cccc(Cl)c1Cn1cnc(=NCc2ccco2)c2[nH]cnc21
    ·	-1.1	0.68	1.9	-1.0	11%	·
COc1ccc(C(=O)Oc2cc(/C=N/NS(=O)(=O)c3ccccc3)ccc2OC)cc1
    ·	0.6	·	·	0.9	2%	·
CCOC(=O)c1ccc(-c2ccc(/C=N/NC(=O)c3cncc(Br)c3)o2)cc1
    i	-4.4	·	·	7.6	-4%	-5.7

# In another format: entries from further up
molecule	FGF22 binding	RanGTP-Impb inh	Ecoli growth	UCH37 inh	HNF4A DNA FP	Vif TR-FRET	MLL AF4-AF9 inh
N#CCc1ccc(NS(=O)(=O)c2cccs2)cc1	·	?	0.7	1.4	0.1	1%	·
O=C(CSc1cccc[n+]1[O-])Nc1ccc(C(F)(F)F)cc1[N+](=O)[O-]	i	-0.7	0.69	2.4	-0.8	3%	2.2
CC(=O)Oc1ccc(/C=N\NC(=O)c2cc3c(ccc4ccccc43)o2)cc1	i	0.0	·	·	13	·	-1.2

# (cont.)
# The line under a structure holds: FGF22 binding	RanGTP-Impb inh	Ecoli growth	UCH37 inh	HNF4A DNA FP	Vif TR-FRET	MLL AF4-AF9 inh
COc1ccc2oc(-c3ccccc3)cc(=O)c2c1
    i	·	·	·	7.8	·	5.5
Cc1cccc(C)c1N(CC(=O)NCc1ccccc1)C(=O)c1csnn1
    i	-3.5	0.6	0.5	-0.5	·	0.5
CN(CCc1ccccn1)C(=O)CN(C)S(=O)(=O)c1ccc2c(c1)c(=O)n(C)c(=O)n2C
    i	?	0.64	3.3	-1.1	7%	-2.2
CCN(CC)CCNC(=O)Cn1c(-c2ccccn2)nc2ccccc21
    i	1.3	0.67	-7.6	1.0	-4%	1.4
CCc1nnc(NC(=O)c2cccc(OC)c2)s1
    ·	3.2	0.68	1.6	-1.0	-4%	·
COc1ccc(CCN2CCCn3c2nc2c3c(=O)n(C)c(=O)n2C)cc1OC
    i	-2.6	0.65	4.3	-1.2	·	-0.7
COc1ccc([N+](=O)[O-])cc1NC(=O)CSCc1ccccc1C
    ·	1.1	0.69	3.9	0.2	3%	·
O=C(CSc1nc(-c2ccc(F)cc2)nc2c1Cc1ccccc1O2)Nc1cccc(C(=O)O)c1
    i	-4.5	0.66	19	-87	-2%	1.8
O=C(CCc1nnc2n(Cc3ccc(F)cc3)c(=O)c3ccccc3n12)NCCN1CCOCC1
    i	0.7	0.69	0.5	3.6	·	0.6
CC(=O)N1CCN(c2ccc(NC(=O)c3ccccc3Br)cc2Cl)CC1
    ·	-0.2	0.8	3.5	0.8	14%	·
COc1ccc2nc(SC(C)C(=O)NC3CCCCC3)[nH]c2c1 (stereo not drawn)
    i	·	0.68	5.4	-2.4	5%	5.5
O=C1c2ccc(-c3ccc(F)cc3OCc3ccccc3)cc2S(=O)(=O)c2cccc(C(=O)N3CCN(c4ncc(Cl)cc4Cl)CC3)c21
    i	·	0.81	4.0	-9.0	·	-4.5
CNCc1nc2ccccc2[nH]1
    i	0.8	0.67	2.4	1.9	1%	-0.5
Cc1ccc(N(C)C(=O)c2cc(S(=O)(=O)N3CCc4ccccc43)cn2C)cc1
    i	-0.2	0.73	3.2	-3.6	·	6.3
CCOC(=O)c1cnc(NCc2ccccc2)nc1C
    ·	-1.9	0.71	-1.6	3.2	-7%	·
COc1cc(C(=O)NCC(=O)NC(C)c2ccc(-n3ccnc3)cc2)cc(OC)c1OC (stereo not drawn)
    i	1.0	0.7	-2.0	1.8	0%	-1.2
Cc1cc(NC(=O)CSc2nnc3ccc(-c4ccccc4)nn23)no1
    i	·	·	·	0.2	-1%	-1.7
CCOc1cc(C(=O)OCc2cc(=O)n3c(C)csc3n2)ccc1OC
    i	·	0.67	-7.9	2.4	·	-0.8
CN(Cc1cn(C)nc1-c1ccc(Oc2ccccc2)cc1)C1CCOC1 (stereo not drawn)
    i	0.0	0.7	0.8	2.3	28%	3.3
COc1ccc(Cc2nc3ccc(C(=O)NCCc4ncccc4C)cc3o2)cc1OC
    i	·	·	·	0.2	2%	2.7
CN1CCc2c(sc(/N=C/c3cc(C(C)(C)C)ccc3O)c2C#N)C1
    i	10	·	·	22	8%	-0.6
CCC(c1nnc(SCC(=O)Nc2ccc(N3CCOCC3)cc2)n1Cc1ccccc1)N(C)C (stereo not drawn)
    i	3.9	0.64	0.1	-3.6	8%	4.5
COc1cc2c(cc1NC(=S)NC(=O)/C=C/c1ccco1)oc1ccccc12
    i	-10	·	·	-2.6	·	-2.9
O=C(C1CCCO1)N1CCN(S(=O)(=O)c2ccc(F)cc2)CC1 (stereo not drawn)
    i	0.8	0.61	2.8	1.8	1%	-2.7
Cc1ccc(SCC(=O)NC(=O)NCc2ccccc2)c(C)c1
    i	-3.4	0.68	-0.6	-1.5	-2%	-2.3
CCn1cc(C(=O)NCCC(C)C)c(=O)c2cc(F)c(N3CCN(C)CC3)cc21
    i	-1.9	0.066*	-35	-1.4	-1%	1.7
Cc1cc(NC(=O)NC(=O)c2cccc(OC(F)(F)C(F)F)c2)n[nH]1
    ·	1.9	0.76	0.7	-1.8	-4%	·
Cc1cc(C)c([N+](=O)[O-])cc1NC(=O)CCS(=O)(=O)c1ccccc1
    i	2.2	0.71	5.6	-4.3	15%	-1.3
CC(Sc1nc(N)c2c3c(sc2n1)CSC(C)(C)C3)C(=O)Nc1ccccc1 (stereo not drawn)
    ·	-1.4	0.7	-1.4	6.4	·	·
COc1ccc2oc(=O)c(C(=O)Oc3ccc(NC(C)=O)cc3)cc2c1
    i	1.3	0.63	-171	-2.5	31%	-18
COC(=O)C1=COC(OC2OC(CO)C(O)C(O)C2O)C2C1C=CC2(O)CO (stereo not drawn)
    i	·	0.67	0.3	-16	·	-2.3
Cc1oc(-c2ccccc2F)nc1CSCC(=O)NC1CC1
    i	2.7	0.7	0.4	3.9	-1%	-17
Cc1ccc(/C=C(\C#N)C(=O)NCC2CCCO2)o1 (stereo not drawn)
    i	8.9	0.62	13	-2.0	12%	0.2
Nc1nc(NC(=O)C(Cl)(Cl)Cl)nn1-c1ccccc1
    i	?	0.65	3.5	-3.5	2%	2.8
Cc1ccc(CNC(=O)c2ccc3c(c2)S(=O)(=O)c2ccccc2C3=O)o1
    ·	-6.5	0.71	0.3	-6.2	·	·
COc1ccc(C(=O)CCc2ccc(OC)c(OC)c2)cc1
    i	-3.8	0.64	3.7	-1.1	·	-0.8
COc1ccc(NC(=O)C2CCN(C(=O)Cc3ccccc3)CC2)c(OC)c1
    ·	2.6	0.67	-0.9	0.0	·	0.6
Cc1cc(/C=C(\C#N)c2nc3ccccc3[nH]2)c(C)n1C
    ·	2.8	·	25*	4.6	3%	·
O=C(O)CCCCCNC(=O)CCn1cnc2ccccc2c1=O
    ·	-1.6	0.66	-0.7	0.9	0%	·
COc1c2ccoc2c(OC[C@@H](O)C(C)(C)O)c2oc(=O)ccc12
    i	2.1	·	4.6	-3.7	-1%	1.0
Oc1ccccc1N1CCN(CC(O)COC2CCCc3ccccc32)CC1 (stereo not drawn)
    i	-0.8	0.65	1.3	-0.6	3%	5.4
COC(=O)C[C@@H]1C[C@H]2c3cc(N(C)C)ccc3O[C@H]2[C@H](CO)O1
    i	·	·	·	-1.8	6%	0.7
Cc1nnc(SCSc2nnc(C)s2)s1
    ·	-2.6	0.72	-5.3	-2.8	1%	·

# Compound activity deposited in PubChem BioAssay by several laboratories.

# This is a subset; count on the stated rates, not on these rows.
